Calb FLC: affects C. albicans growth with fluconazole. AID 1979. C. albicans CaCi-2 (fluconazole-resistant clinical isolate) + fluconazole, Alamar Blue growth, 48 h. growth inhibition, % (concentration not given with the values). 300,000 compounds, 0.57% hits;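 active = most replicates above 75%; inconclusive = exactly half above 75%; inactive = most below 75%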;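 also: all wells also contain fluconazole at 8 µg/ml as a sub-toxic cotreatment; 0% = median of DMSO wells and 100% = median of geldanamycin control wells; wells of about 8 µL received 7.5 nL stock; the first replicate is given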
LANA-H2B inh: blocks KSHV LANA binding to histone H2A/H2B | 320,000 compounds, 0.6% hits | inhibition, % (concentration not given with the values) | cell-free LANA-H2A/H2B peptide, fluorescence polarization | AID 2629 | Q9QR71; in the data active = inhibition mostly above about 10%, no sharp cut-off; inactive = mostly below about 6.7%;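 also: stock transfer was 7.5 nL into about 10 µL; 0% = median of vehicle wells and 100% = median of positive control wells; one replicate is shown; the record names a cut of 25% in any replicate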
Beta cell apopt: blocks beta cell apoptosis; INS-1E cytokine-induced death, ATP luminescence, 48 h; percent of positive-control rescue, neutral wells zero; protection from apoptosis, % (no concentration beside the values); 300,000 compounds, 0.8% hits; AID 435005;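 active = all replicates at 75% or more, or half of them and the mean; inconclusive = half reach 75% but not the mean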;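 also: 0% = cytokine-treated negative control wells and 100% = positive control rescue; higher means more ATP so stronger rescue from cytokine killing; wells of about 40 µL received 100 nL stock; the first replicate is given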
RanGTP-Imp inh: disruptors of Ran-importin-beta complex formation – biochemical, FRET, CFP-Ran, YFP-importin-beta, homogeneous, primary screen; 300,000 compounds, 1.1% hits; cell-free CFP-Ran/YFP-importin-beta FRET ratio; inhibition, % (concentration not given with the values);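 active = most replicates above 15%; inconclusive = exactly half above 15%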;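 also: 0% = DMSO wells and 100% = Ran loaded with GDP instead of GTP; wells of about 40 µL received 100 nL stock; the first replicate is given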
MLL AF4-AF9 inh: blocks AF4 peptide binding to human AF9; AlphaScreen, biotin-AF4 peptide binding to FLAG-AF9; inhibition, % at 10 µM; AID 651704; 350,000 compounds, 0.47% hits;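 active = every replicate reaching a set inhibition limit, whatever the replicate mean, cut at about 25% in these data; inconclusive = mean inhibition reaches that limit but some replicates miss it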;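 also: 0% = plate neutral control median and 100% = total signal loss; the record names both 10 and 1 µM as test concentration; the first replicate is given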
Target sequence (P42568 whole entry, looked up): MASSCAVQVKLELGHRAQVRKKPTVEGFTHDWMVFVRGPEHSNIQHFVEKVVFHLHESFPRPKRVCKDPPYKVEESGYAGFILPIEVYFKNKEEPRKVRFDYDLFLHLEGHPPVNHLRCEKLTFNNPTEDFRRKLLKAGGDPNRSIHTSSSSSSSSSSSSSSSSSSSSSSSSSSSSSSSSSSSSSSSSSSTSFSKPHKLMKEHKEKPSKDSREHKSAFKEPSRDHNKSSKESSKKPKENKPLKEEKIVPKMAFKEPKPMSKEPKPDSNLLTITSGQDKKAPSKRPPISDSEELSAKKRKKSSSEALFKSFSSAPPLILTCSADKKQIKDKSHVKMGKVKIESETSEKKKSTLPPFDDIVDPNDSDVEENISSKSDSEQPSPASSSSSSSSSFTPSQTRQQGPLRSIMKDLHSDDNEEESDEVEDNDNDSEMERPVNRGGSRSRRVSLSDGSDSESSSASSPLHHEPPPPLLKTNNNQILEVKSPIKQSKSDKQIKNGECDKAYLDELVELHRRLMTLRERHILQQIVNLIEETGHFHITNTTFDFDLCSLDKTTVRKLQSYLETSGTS
T cruzi inh: T. cruzi replication inhibition | 300,000 compounds, 1.4% hits | inhibition, % (no concentration beside the values) | T. cruzi beta-gal in NIH3T3, luminescence, 90 h | AID 1885;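 active = mean inhibition across valid replicates above about 55%, limit read from the data; inconclusive = mean below that limit but half or more replicates reach it; inactive = mean below it, under half of replicates reach it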;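 also: signal also drops with host cell toxicity which is not excluded here; 0% = plate median of DMSO wells and 100% = zero luminescence signal; higher percent means less beta-gal luminescence so fewer parasites; stock transfer was 50 nL into about 50 µL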
Vif TR-FRET: inhibitors of Vif binding to APOBEC3G peptide, primary screen, biochemical, TR-FRET, GST-Vif 1-94, biotin-A3G peptide, dose response retest (AID 1117319). TR-FRET GST-Vif / biotin-A3G peptide binding; higher % means a stronger effect; test concentration not given here; strong numbers were not always called active. one-dose inhibition, %; IC50 in µM for titrated hits. 260,000 compounds, 0.57% hits;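 active = above the screen mean plus three standard deviations and confirmed in dose response; inconclusive = results disagree or hit not tested in dose response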;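 also: Vif residues 1-94 fused to GST binding biotinylated APOBEC3G peptide 110-148; 0% = full assay without inhibitor and 100% = GST in place of GST-Vif; retest series ran down from 100 µM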
A1 inh: inhibitors of the anti-apoptotic protein A1, read as caspase activation | MEF A1-2A-BIM cells, Caspase-Glo 3/7 luminescence, 3 h; percent of clofoctol response, vehicle zero | caspase activation, % (no concentration beside the values) | 330,000 compounds, 0.066% hits;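 active = over half of replicate activation scores above 10%, or exactly half above 10 with the replicate mean above 10; inconclusive = replicate mean below 10 yet half the replicates above 10; inactive = over half of replicates below 10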;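 also: wells of about 30 µL received 50 nL stock; many hits fall short of the cut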
An asterisk follows results filed as active; ? = inconclusive; . = no result given; & = joins results of further samples; ! = not active in a repeat. Random draw from the library, and some 4.3% of all compounds hit somewhere here.

mol	Calb FLC	LANA-H2B inh	Beta cell apopt	RanGTP-Imp inh	MLL AF4-AF9 inh	T cruzi inh	Vif TR-FRET	A1 inh
Cc1ccc2c(C)c(C(=O)N(Cc3ccc(N(C)C)cc3)C3CCS(=O)(=O)C3)oc2c1 (stereo not given)	5	-3.1	10	2.2	38*	20	.	.
Cc1ccc(N2CC(C(=O)NC3=NCCS3)CC2=O)cc1C (stereo not given)	-8	0.6	3	-1.8	.	-3	10%	-0.7
CC(=O)c1cccc(NC(=O)Cc2ccc3c(c2)CCCC3)c1	-7	0.4	.	1.3	.	-5	13%	0.1
Cc1cccc(NS(=O)(=O)c2c(C)noc2C)c1	5	-8.6	-9	-2.9	-2.2	-14	28%	0.3
Cc1ccc(S(=O)(=O)Nc2c(C)n(C)n(-c3ccccc3)c2=O)cc1C(=O)OCC(=O)N1CCCC(C)C1 (stereo not given)	-2	-1.8	-2	4.9	-0.3	0	.	0.3
CCCN(CC(=O)Nc1ccccc1C)C(=O)c1ccc(Cl)c(S(=O)(=O)N2CCCC2)c1	-5	6.0	1	-4.0	-17	-6	0%	1.4
CC(C)Oc1ccc(CCNC(=O)CC2C(=O)NCCN2C)cc1 (stereo not given)	-8	-2.0	-4	-1.1	9.5	10	5%	-0.7
CC(C)CCNC(=O)c1ccc(Cl)c(NC(=O)c2ccccc2F)c1	11	-0.3	-1	-0.1	0.3	-19	.	0.1
Cc1cc(C(=O)OCC(=O)N(C)c2ccccc2)c(C)o1	.	-5.2	0	.	0.4	.	.	-0.7
COc1ccc(-c2sc3ccc(OC)cc3c2C#Cc2ccccn2)cc1	.	-7.4	5	.	7.2	.	.	-0.2
O=C(NCCCc1nc2ccccc2[nH]1)c1ccc(F)cc1	-7	1.2	4	-2.2	0.0	8	14%	1.3
COc1ccccc1NS(=O)(=O)c1cc(NC(=O)CNC(=O)c2ccc(C)s2)ccc1Cl	-2	.	-1	-2.9	-2.5	-3	-3%	-0.4
CCC(NC(=O)c1cncc(Br)c1)c1ccccc1 (stereo not given)	-17	7.3	-3	-1.9	-2.1	-1	.	-0.4
Cc1nc([N+](=O)[O-])cn1CC(O)c1ccc(F)cc1 (stereo not given)	-1	-5.2	-1	-0.2	-0.1	-19	-7%	0.4
CC(=O)Nn1c(C)nnc1-n1nc(C)cc1C	3	-7.7	-1	3.0	.	-2	-2%	0.2
COc1ccc(CCNC(=O)CCn2c(=O)oc3ccccc32)cc1	1	2.0	-18	2.4	-6.6	-9	23%	1.9
O=C(Nc1ccc2c(c1)OCCO2)c1c[nH]c(=O)n(-c2ccc(F)c(Cl)c2)c1=O	5	-1.9	0	1.2	-1.4	-3	.	-0.5
CCCCNc1ccccc1C(=O)OCC(=O)Nc1ccc(S(N)(=O)=O)cc1	40	7.9	3	0.1	.	-1	1%	-0.5
CC1CCC(NC(=O)CN2CCCN(Cc3ccc(F)cc3Cl)C2=O)CC1 (stereo not given)	-2	-0.5	6	4.4	.	3	12%	0.5
Cc1ccc(NC(=O)c2ccc(=O)[nH]c2)cc1S(=O)(=O)N1CCCCC1	22	-1.0	-4	-1.4	?	-9	.	1.0
COc1ccc2nc(SCC(=O)NCc3ccc(S(N)(=O)=O)cc3)[nH]c2c1	-10	1.3	-12	-1.7	-1.1	-5	.	-0.4
CCN1C(=O)Nc2cccc3cccc1c23	2	-4.9	-10	-0.5	0.8	3	.	0.9
Cc1ccccc1-c1ccc(=O)n(CC(=O)Nc2ccc(-n3cnnn3)cc2)n1	0	0.5	5	3.9	-40	-7	10%	0.7
COC(=O)CSc1nnc(-c2ccncc2)o1	4	2.8	1	-3.4	.	-18	4%	-0.7
CC1=C(C(=O)OC2CCCCC2)C(c2ccc(O)cc2)NC(=O)N1 (stereo not given)	-2	0.9	.	-0.7	4.7	-1	.	-0.6
Cc1cccc(NC2=NCC(=O)N2CCc2ccccc2)c1	0	-2.0	0	-0.9	.	-1	-6%	-0.1
COc1cccc(-c2cc(C(=O)Nc3ccn(Cc4ccc(C)cc4)n3)no2)c1	2	-1.0	-9	1.0	-47	15	.	-0.7
O=C(NC(=S)Nc1ccc2c(c1)OCO2)c1ccccc1	-1	-1.8	-1	6.2	.	-32	15%	-5.2
CC(SCc1ccccc1)C(=O)Nc1ccccc1-c1ccccc1 (stereo not given)	7	6.1	6	-3.1	-0.2	-8	.	0.3
CSc1nnc2c(n1)OC(c1ccc(C(=O)O)cc1)N(C(C)=O)c1ccccc1-2 (stereo not given)	-2	0.7	-2	-4.6	-0.1	-2	3%	-0.2
CC1(C)CC(O)CC(C)(C)N1CC(O)COCCOc1ccc(Br)cc1 (stereo not given)	-5	4.2	-9	-2.3	.	2	-12%	0.3
CCOc1ccc(S(=O)(=O)N2CCCC(C(=O)NCc3ccccn3)C2)cc1C (stereo not given)	3	-4.5	-1	-4.0	-14	-10	.	-0.7
O=C1CCCC2=C1C(c1cccc(O)c1)c1c(ccc3ncccc13)N2 (stereo not given)	3	1.0	-5	1.7	-4.6	8	4%	1.1
COC(=O)C1=C(C)N(CCc2ccccc2)C(=O)C1	.	1.7	0	.	.	.	33%	0.3
CCC1(CC)NC(=O)N(CC(=O)OCC(=O)NC(=O)c2ccc(Cl)cc2)C1=O	-5	3.4	-2	-0.8	-4.7	-8	-3%	0.6
O=C(O)c1cc2c(cc1NC(=O)c1ccccc1C(F)(F)F)OCCCO2	-9	-7.7	-5	-4.3	0.5	-10	.	0.8
Cc1cccc(-n2c(=O)[nH]c3c(C(N)=O)nc(C(C)C)nc32)c1	4	3.9	.	1.1	.	7	?	0.0
Cc1ccc(NC(=O)C2CCCN(S(=O)(=O)c3ccc(-n4cnnn4)cc3)C2)cc1 (stereo not given)	9	3.1	-6	4.4	-8.6	-1	.	0.6
CC1CN(C(=O)/C=C/c2ccc3c(c2)OCO3)CC(C)O1 (stereo not given)	-15	-1.1	-5	3.5	.	-23	14%	0.4
O=C(Nc1ccc(N2CCOCC2)cc1)C1CCCCN1S(=O)(=O)c1ccccc1 (stereo not given)	-2	-3.3	-1	2.7	2.4	-29	.	-0.8
CCOc1cc(C2NC(=S)NC(C)=C2C(=O)Nc2ccc(OC)cc2)ccc1O (stereo not given)	6	2.3	3	2.5	.	1	.	0.4
CN(C)C(=O)C[n+]1ccc(/C=N/O)cc1	4	-1.4	-2	3.0	0.5	-31	.	1.4
COc1cccc(CN2CCCC(C(=O)c3ccc4c(c3)OCO4)C2)c1O (stereo not given)	-28	-1.2	2	3.1	5.3	-1	.	0.7
CCN(CC)S(=O)(=O)c1ccc(NC(=O)C(C)N(c2ccc(OC)cc2)S(C)(=O)=O)cc1 (stereo not given)	1	.	.	-0.5	.	7	8%&-3%	.
O=C1CN(CC(=O)N2CCCCC2)c2ccccc2O1	-5	1.7	2	-1.8	.	8	28%	0.5
O=C(Nc1ccc(N2CCN(Cc3ccccc3)CC2)cc1)c1ccccc1[N+](=O)[O-]	-14	5.3	4	?	-2.3	12	7%	-0.3
Clc1nc2sccn2c1/C=N/n1cnc2ccccc21	11	2.2	6	-3.2	-32	2	-4%	-2.4
CCN(C(=O)c1cc2cccc(OC)c2oc1=O)C1CCCCC1	-7	-3.5	-5	4.6	.	3	.	1.0
COc1ccccc1OCC(=O)NCCSCc1ccc(Cl)cc1	49	1.1	-6	3.4	-3.4	-6	.	0.5
COc1ccc(C(=O)c2c(-c3cccc(C)c3)oc3ccc(N4CCOCC4)cc23)cn1	-3	-0.6	9	1.6	2.6	22	.	1.4

The results go on:
mol	Calb FLC	LANA-H2B inh	Beta cell apopt	RanGTP-Imp inh	MLL AF4-AF9 inh	T cruzi inh	Vif TR-FRET	A1 inh
O=C(CSc1cn(CC(=O)N2CCCC2)c2ccccc12)NCC1CCCO1 (stereo not given)	7	-0.1	-2	1.6	-3.3	3	4%	0.2
O=C(NC(=S)Nc1ccccc1N1CCOCC1)c1sc2ccccc2c1Cl	-3	-2.4	6	?	.	-15	4%	1.2
COc1ccccc1NC(=O)COc1ccc(/C=N/NS(=O)(=O)c2ccc(C)cc2)cc1	3	-1.4	-1	-0.5	.	4	7%	0.6
Cc1cccc(C(C)C)c1NC(=O)COC(=O)c1cccc(S(=O)(=O)N2CCc3ccccc3C2)c1	3	-4.1	8	5.8	.	-14	-3%	0.3
CCN(CC)S(=O)(=O)c1cc(C(=O)OCC(=O)Nc2cccc(Br)c2)ccc1F	-7	-4.0	-4	0.8	.	-9	-9%	0.0
O=C(CC1NCCNC1=O)Nc1ccc(Cl)c(Cl)c1 (stereo not given)	-2	3.4	-1	2.2	.	-7	16%	2.5
CCC(C)(NC(=O)c1ccc2c(c1)OCO2)C(=O)NC1CCCCC1 (stereo not given)	0	-1.4	-5	1.8	-2.8	4	-3%	0.8
O=C(NCCCCCCNC(=O)C1CCCC1)C1CCCC1	-2	-1.1	0	2.9	.	-4	-1%	-0.1
S=c1[nH]nc(CSCc2ccc(Cl)cc2Cl)n1-c1ccccc1	21	-1.3	7	-1.1	.	-6	8%	-0.5
O=C(c1cc2cc(Br)ccc2s1)N1CCOCC1	-2	-240	0	1.2	0.3	-3	8%	0.3
Cc1ccc(NC(=O)COC(=O)c2cc(Cl)ccc2[N+](=O)[O-])c(C)c1	-7	2.8	0	9.1	0.5	0	8%	-0.9
CCn1nc(C)c(NC(=O)Nc2cccc(Cl)c2Cl)c1C	-2	4.2	3	-6.7	-2.1	-4	-8%	0.7
COc1ccccc1N(CC(=O)Nc1ccc(C(F)(F)F)cc1)S(C)(=O)=O	-1	-0.1	4	1.2	-1.4	22	0%	-0.1
CC(=O)c1cn(N2CCCCC2)c(=O)[nH]c1=O	-4	-1.2	-6	1.0	2.4	-5	2%	1.1
CCOc1ccc(-c2nnc3ccc(SCC(=O)NCc4ccco4)nn23)cc1	-7	6.6	-4	?	.	3	3%	0.9
O=C(O)c1ccc(OCCOc2ccccc2)cc1	.	0.9	-6	-0.3	-2.3	-22	3%	-3.7
NC(=O)c1[nH]cnc1N	-5&13	3.0&-1.7	2&-5	-14&0.3	-1.0&-3.0	58*!	.	-0.1&0.0
COCc1c(C(=O)OCC(=O)N(C)C2CCS(=O)(=O)C2)oc2ccccc12 (stereo not given)	.	0.8	-3	.	-4.2	.	.	-0.8
COc1cc(C(=O)N2CCC3(CC2)NCCc2[nH]cnc23)cc(OC)c1OC	3	-1.2	-8	-1.8	-7.4	7	2%	0.6
CSc1n[nH]c2nc3c(c(=O)n12)C1(CCCC1)Cc1ccccc1-3	8	2.0	-3	14	1.2	-2	.	-0.1
Cc1c(C(=O)N/N=C/c2ccccc2)[nH]c2c([N+](=O)[O-])cccc12	-3	5.7	.	-2.0	-4.7	-7	.	0.4
Cc1ccc(C2(CC(=O)N3CCCC3)CCOC(C(C)C)C2)cc1 (stereo not given)	7	0.9	1	?	.	0	4%	2.5
C#CC[N+]1(CC#Cc2ccccc2)CCCCC1	1	0.5	-1	0.2	-3.5	-11	15%	-0.6

Assay outcomes as filed in PubChem BioAssay.
